TRPC6 inh = mouse TRPC6 channel inhibitors, primary screen, cell-based, HEK293, membrane potential dye; Short transient receptor potential channel 6 (Mus musculus), Q61143; ACh-evoked depolarization; active compounds read low; B-score at 10 µM; hit rate 1.1% among 310,000; AID 2553, 2010;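 active = B-score under library mean minus 3 SD, initial fluorescence not abnormally high, positive integrated signal ratio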;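 also: B-score derived from integrated fluorescence ratio over the kinetic read; more negative B-score means stronger inhibition of depolarization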
Target sequence (Q61143 whole entry, looked up): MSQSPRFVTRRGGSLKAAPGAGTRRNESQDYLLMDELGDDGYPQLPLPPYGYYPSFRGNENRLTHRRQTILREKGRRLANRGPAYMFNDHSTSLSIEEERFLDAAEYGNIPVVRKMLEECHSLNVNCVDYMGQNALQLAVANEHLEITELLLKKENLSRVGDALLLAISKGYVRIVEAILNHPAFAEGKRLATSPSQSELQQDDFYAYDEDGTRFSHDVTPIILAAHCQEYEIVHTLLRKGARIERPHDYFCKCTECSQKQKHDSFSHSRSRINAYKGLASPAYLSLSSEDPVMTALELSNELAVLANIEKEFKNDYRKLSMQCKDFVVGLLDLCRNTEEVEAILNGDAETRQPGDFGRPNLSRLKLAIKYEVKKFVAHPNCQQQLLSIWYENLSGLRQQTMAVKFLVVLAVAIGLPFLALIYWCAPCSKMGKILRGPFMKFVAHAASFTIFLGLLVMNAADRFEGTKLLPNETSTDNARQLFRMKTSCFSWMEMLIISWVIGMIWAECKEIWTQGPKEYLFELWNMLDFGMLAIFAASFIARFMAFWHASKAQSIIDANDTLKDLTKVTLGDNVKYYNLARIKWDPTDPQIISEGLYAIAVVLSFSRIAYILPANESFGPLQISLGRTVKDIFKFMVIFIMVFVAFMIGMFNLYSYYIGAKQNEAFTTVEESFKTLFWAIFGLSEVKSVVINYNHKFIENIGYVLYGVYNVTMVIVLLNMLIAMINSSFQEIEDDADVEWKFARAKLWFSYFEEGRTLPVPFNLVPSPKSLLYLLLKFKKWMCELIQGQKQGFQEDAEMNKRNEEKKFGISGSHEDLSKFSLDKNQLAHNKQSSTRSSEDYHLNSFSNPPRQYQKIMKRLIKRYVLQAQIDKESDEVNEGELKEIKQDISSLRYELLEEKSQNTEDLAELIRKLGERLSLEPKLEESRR
TRPC4 block = inhibitors of mouse TRPC4 channel, primary screen, Fluo4 calcium, HEK293 TRPC4beta/mu-opioid cells. hit rate 0.39% among 300,000. Short transient receptor potential channel 4 (Mus musculus), Q9QUQ5. AID 2247, 2010. DAMGO-evoked Fluo4 calcium flux; active compounds read low. B-score at 10 µM;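 active = B-score over 3 SD under the library average, no early fluorescence shift, positive overall ratio signal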
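Test system – stable TRPC4beta/mu-opioid receptor HEK293 cells · Probe or stimulus – DAMGO, a submaximal dose followed by a maximal one · Dosing – one concentration per compound · Signal – Fluo4 calcium fluorescence by kinetic imaging, 5 s 1 Hz baseline · Evaluation – per-well B score of integrated baseline-normalized Fluo4 ratio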
Platelet DG rel = inhibitors of platelet dense granule secretion, primary screen, cell-based, MLPCN, human platelets; human platelet-rich plasma, SFLLRN dense granule ATP release, luminescence; inhibition, %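 (compounds screened at 7.5 µM in platelet-rich plasma)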; hit rate 0.22% among 300,000; AID 1663, 2009;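 active = mean replicate score, as percent of positive control, at or above 50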
RGS4 inh = RGS4 inhibitors, primary screen, cell-based, HEK293 M3R inducible RGS4, calcium flux; Regulator of G-protein signaling 4 (Homo sapiens), P49798; B-score at 10 µM; Fluo-4 calcium flux; active compounds read high; triggered by carbachol at its EC20; hit rate 0.45% among 310,000; AID 463165, 2010;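 active = B-score, a plate-corrected calcium signal, over three deviations above library mean, with baseline fluorescence within five deviations of library mean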;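 also: RGS4 expression induced by doxycycline in cells with stable M3 receptor; B-score is computed from the integrated fluorescence ratio over baseline after carbachol; higher B-score means a larger calcium signal and so more RGS4 inhibition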
RGS4 pot = RGS4 potentiators or activators, primary screen, cell-based, HEK293 M3R inducible RGS4, calcium flux; carbachol calcium flux Fluo4; active compounds read low; B-score at 10 µM; hit rate 0.92% among 310,000;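 active = B-score of the integrated calcium signal more than 4 SD below the library mean, with starting fluorescence not abnormally high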;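 also: negative B-score means reduced calcium response which marks RGS4 activation or potentiation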
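System – HEK293 FlpIn-TREx cells, stable M3R, doxycycline-inducible RGS4 · Reagent – ECmax carbachol challenge · Times – compound preincubation 20 min at room temperature before agonist · Technique – Fluo4 fluorescence kinetic imaging of calcium · Measure – B score of integrated Fluo4 ratio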
TRPC6 act = mouse TRPC6 channel activators, primary screen, cell-based, HEK293, membrane potential dye; Short transient receptor potential channel 6 (Mus musculus), Q61143; HEK293-TRPC6 membrane potential dye fluorescence; active compounds read high; B-score at 10 µM; hit rate 0.13% among 310,000; AID 2550, 2010;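 active = B-score of the integrated fluorescence ratio above library mean plus 3 SD, and starting fluorescence ratio within library mean plus 5 SD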;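 also: higher score means more depolarization so channel activation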
MrgX1 PAM = positive allosteric modulators of MrgX1, primary screen, HEK293 cells, Fluo-4 calcium flux; Mas-related G-protein coupled receptor member X1 (Homo sapiens), Q96LB2; FDSS; active compounds read high; B-score at 10 µM; hit rate 0.63% among 310,000;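 active = plate-corrected calcium response at least 3 library SD above typical, normal starting fluorescence, not activating the receptor alone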;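 also: compound read alongside a low EC10 to EC30 dose of BAM8-22 agonist; peak minus trough fluorescence over baseline measured at the second addition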
MrgX1 ag = agonists of human MrgX1 receptor, primary screen, HEK293 cells, Fluo-4 calcium flux; Fluo-4 calcium fluorescence, agonist mode; active compounds read high; B-score at 10 µM; hit rate 0.44% among 310,000; AID 588627, 2011;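 active = calcium response B-score plate-corrected fluorescence ratio at least 3 library SD, with starting fluorescence B-score inside 5 SD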
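Material – MrgX1-expressing HEK293 cells · Input – 15,000 cells seeded per well · Dosing – compound as first of three additions · Times – overnight seeding, then 1 h dark dye loading · Measured by – kinetic Fluo-4 NW fluorescence of intracellular calcium · Read-out – B-scored fluorescence response ratio · Benchmarks – positive and negative control wells on each plate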
SKKanGAS inh = S. pyogenes SKKanGAS growth inhibitors in kanamycin, primary screen, streptokinase expression inhibitor project, SKKanGAS strain, BacTiter-Glo luminescence; hit rate 1.3% among 300,000; inhibition, % at 7.5 µM; AID 1662, 2009; 6 h;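 active = mean replicate score, as percent of positive control median, at least 50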;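 also: strain carries kanamycin resistance gene driven by streptokinase promoter and grows in 40 µg/ml kanamycin; loss of luminescence reflects streptokinase promoter inhibition or plain growth inhibition; 0% = median of DMSO wells and 100% = positive control at its reference dose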
MrgX1 antagonist = antagonists of human MrgX1 receptor, primary screen, HEK293 cells, Fluo-4 calcium flux. Mas-related G-protein coupled receptor member X1 (Homo sapiens), Q96LB2. hit rate 1.3% among 310,000. B-score at 10 µM. BAM8-22 antagonism; active compounds read low;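 active = calcium-response B-score plate-corrected more than 3 library SD below zero, starting fluorescence within 5 deviations, no agonist response on first addition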;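 also: peak minus trough fluorescence over baseline after final BAM8-22 challenge near maximal dose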
The depositor's hits bear a star; i = inactive; nt = not tested or not shown. A portion of the library. The share of hits here may be higher or lower than overall.

SMILES | TRPC6 inh | TRPC4 block | Platelet DG rel | RGS4 inh | RGS4 pot | TRPC6 act | MrgX1 PAM | MrgX1 ag | SKKanGAS inh | MrgX1 antagonist
Brc1ccc([C@H]2CN3CCSC3=N2)cc1 | i | i | -1 | i | i | i | i | i | 0 | i
OC1COC(OCc2ccccc2)C(O)C1O (stereo not drawn) | i | i | -6 | i | i | i | i | i | -1 | i
C=CCN=C(NC#N)SCCc1ccccc1 | i | i | 9 | i | i | i | i | i | 4 | i
CCc1[nH]c(=O)c(C#N)c2c1CCCC2 | i | i | 1 | i | i | i | i | i | -1 | i
CC(C)c1cc(NCCCN2CCOCC2)n2c(nc3ccccc32)c1C#N | i | i | 2 | i | i | i | i | i | 5 | i
COC(=O)C(NC(=O)c1ccc(F)cc1)(Nc1nc(C)cs1)C(F)(F)F (stereo not drawn) | i | i | -2 | i | i | i | i | i | -3 | i
O=CNC(=O)c1ccccc1C(=O)O | i | i | -1 | i | i | i | i | i | -1 | i
Cc1c(OCc2ccccc2)c(=O)ccn1Cc1ccccc1 | i | i | 1 | i | i | i | i | i | -3 | i
O=C(OCCCN1CCCC1)C1(c2ccccc2)CCCC1 | i | i | 3 | i | i | i | i | i | -2 | i
Cc1cccc(C)c1NC(=O)CSCC(=O)c1ccc(O)c(O)c1 | i | i | 4 | i | i | i | i | i | 8 | i
O=C(NCCCN1CCOCC1)C1(c2ccccc2)CCOCC1 | i | i | 2 | i | i | i | i | i | 4 | i
CC1(C)Cc2[nH]c(=O)c(C#N)cc2CS1 | i | i | -1 | i | i | i | i | i | -6 | i
CCCc1c(OCCCCc2nn[nH]n2)ccc(C(C)=O)c1O | i | i | 0 | i | i | i | i | i | 9 | i
CC(=O)Oc1ccc2c(C)cc(=O)[nH]c2c1 | i | i | 20 | i | i | i | i | i | -3 | i
CC(C)c1nc(NCCN2CCOCC2)c(C#N)c2c1COC(C)(C)C2 | i | i | 5 | i | i | i | i | i | -1 | i
CCCCC(=O)NC(Nc1ccc(C)cn1)(C(=O)OCC)C(F)(F)F (stereo not drawn) | i | i | 6 | i | i | i | i | i | 3 | i
COc1ccccc1Nc1ncnc2c1cnn2-c1cccc(C)c1 | i | i | -2 | i | i | i | i | i | -1 | i
N=C(N)N1CCc2ccccc2C1 | i | i | 2 | i | i | i | i | i | -1 | i
O=C(Nc1ccc2c(c1)OCO2)c1cncc(Br)c1 | i | i | 6 | i | i | i | i | i | 0 | i
CCOC(=O)C1=C(C(C)=O)C(c2cccnc2)C(C#N)=C(N)O1 (stereo not drawn) | i | i | 1 | i | i | i | i | i | 5 | i
CN1C2CCC1CC(OC(=O)c1c[nH]c3ccccc13)C2 (stereo not drawn) | i | i | -19 | i | i | i | i | i | -8 | i
CC(=O)C1(C)OC(N)=C(C#N)C(c2ccccc2)C1(C#N)C#N (stereo not drawn) | i | i | -1 | i | i | i | i | i | 1 | i
CCn1nnc(C(=O)O)c1C(=O)O | i | i | -5 | i | i | i | i | i | -4 | i
c1coc(-c2nnc3sc(Cc4cccs4)nn23)c1 | i | i | -6 | i | i | i | i | i | 1 | -7.2*
COc1ccc2c3c1O[C@H]1C[C@@H](O)C=C[C@@]31CCN(C)C2 | i | i | 1 | i | i | i | i | i | -2 | i
CC(C)(C)n1cnc2cc(NS(=O)(=O)c3ccc(Br)cc3)ccc21 | i | i | -15 | i | i | i | i | i | 2 | i
CSc1nc(N)nc(SCC(=O)OC(C)C)c1C#N | i | i | -2 | i | i | i | i | i | 1 | i
Cc1ccc(C2C3CN(C(C)C)CC=C3C(C#N)=C(N)C2(C#N)C#N)cc1 (stereo not drawn) | i | i | 5 | i | -7.1* | i | i | i | 3 | i
Cc1c(NC(=O)c2coc(=O)c(Br)c2)c(=O)n(-c2ccccc2)n1C | i | i | -10 | 9* | i | i | i | i | 8 | i
COc1ccc(CCNC2CC(C)N(C)CC2C)cc1OC (stereo not drawn) | i | i | 18 | i | i | i | i | i | 1 | i
CC1(C)Cc2c(c(-c3ccccc3)nc(N3CCCC3)c2C(N)=O)CO1 | i | i | 1 | i | i | i | i | i | 1 | i
Cc1ccc(Cn2ncc3c(N4CCN(c5ccc(C)cc5)CC4)ncnc32)cc1 | i | i | -1 | i | i | i | i | i | -1 | i
CC(C)=CCC1=C(OCC(=O)O)C(=O)c2ccccc2C1=O | i | i | -1 | i | i | i | i | i | 15 | i
CC(=O)[C@@]1(O)CC[C@H]2[C@@H]3CCC4=CC(=O)CC[C@]4(C)[C@H]3CC[C@@]21C | i | i | 1 | i | i | i | i | i | -4 | i
O=C(O)c1ccc(COCC(F)(F)C(F)F)o1 | i | i | 0 | i | i | i | i | i | 1 | i
Cc1c(C)[n+](=O)c2c(n1[O-])CCC2 | i | i | -52 | i | i | i | i | i | 3 | i
COc1cccc(OC)c1-c1nn2c(-c3ccccc3Cl)nnc2s1 | i | i | 2 | i | i | i | i | i | 10 | i
N/C(CCCN1CCCCC1)=N/O | i | i | 7 | i | i | i | i | i | -1 | i
Cc1cccc(OCC(=O)N2CCC(N3CCOCC3)CC2)c1 | i | i | -2 | i | i | i | i | i | -2 | i
CC(C)(C(=O)O)c1ccc(C(O)CCCN2CCC(C(O)(c3ccccc3)c3ccccc3)CC2)cc1 (stereo not drawn) | i | i | 1 | i | i | i | i | i | -4 | i
CC(=O)Oc1ccccc1C(=O)O | i | i | 0 | i | i | i | i | i | -1 | i
O=C(O)CC(NCc1ccco1)C(=O)OCC1CCCO1 (stereo not drawn) | i | i | -2 | i | i | i | i | i | 9 | i
CN(C)c1nc2n(c(=O)n1)C(C#N)CS2 (stereo not drawn) | i | i | 10 | i | i | i | i | i | -11 | i
CCOc1cccc(-c2nn3c(-c4ccccn4)nnc3s2)c1 | i | i | 0 | i | i | i | i | i | 2 | i
O=C(OCCN1CCOCC1)c1ccc2c(c1)OCCO2 | i | i | 3 | i | i | i | i | i | 3 | i
CCc1[nH]c(=O)c(C#N)c2c1CSC(C)(C)C2 | i | i | -11 | i | i | i | i | i | -9 | i
O=c1c2ccccc2[nH]c(=S)n1CCN1CCC(=C(c2ccc(F)cc2)c2ccc(F)cc2)CC1 | i | i | -2 | i | i | i | nt | nt | 29 | nt
CC1(C)Cc2nc(NCCCO)c(C#N)cc2CO1 | i | i | 2 | i | i | i | i | i | -5 | i
Cc1nnc(N2CCCCC2)c2ccccc12 | i | i | 24 | i | i | i | i | i | 1 | i
CCCCOC(=O)c1ccc(NC(=O)CSc2nncn2C)cc1 | i | i | 2 | i | i | i | i | i | 0 | i
O=C1NC(=O)C(c2ccccc2[N+](=O)[O-])=C1Nc1ccc(O)c(Cl)c1 | i | i | -2 | i | i | i | i | i | 0 | i
C[C@H](CCC(=O)O)[C@H]1CC[C@H]2[C@@H]3CC[C@@H]4C[C@H](O)CC[C@]4(C)[C@H]3C[C@H](O)[C@]12C | i | i | -1 | i | i | i | i | i | 4 | i
Cc1cc(=O)oc(C)c1C(=O)Nc1ccc2nsnc2c1 | i | i | -3 | i | i | i | i | i | 0 | i
Cc1c(C(=O)O)sc(=S)n1-c1ccccc1 | i | i | 3 | i | i | i | i | i | 2 | i
COc1ccc(OC)c(C2C(C#N)=C(N)Oc3cc(C)[nH]c(=O)c32)c1 (stereo not drawn) | i | i | 17 | i | i | i | i | i | 13 | i
CCOC(=O)C1=C(N)N2C(=O)CSC2=C(C(=O)OC)C1 | i | i | -1 | i | i | i | i | i | -6 | i
Cc1noc(NS(=O)(=O)c2ccc(NC(=O)COc3ccccc3)cc2)c1C | i | i | -4 | i | i | i | i | i | 7 | i
CC1(C)Cc2c(C#N)c(NCCN3CCOCC3)nc(-c3ccco3)c2CO1 | i | i | 3 | i | i | i | i | i | 3 | i
Cc1cc(C(C)(C)C)cc(C)c1CC1=NCCN1 | i | i | 1 | i | i | i | i | i | 2 | i
CC(=O)O[C@H]1C[C@@H]2CC[C@@H]3[C@H](CC[C@@]4(C)[C@H]3C[C@H]([N+]3(C)CCCCC3)[C@@H]4OC(C)=O)[C@@]2(C)C[C@@H]1[N+]1(C)CCCCC1 | nt | nt | nt | nt | nt | nt | i | i | nt | i
CCCNC(=O)OC[C@H]1O[C@H](CCO/N=C(\C)CCN2CCc3nc(-c4ccccc4)c(-c4ccccc4)cc3C2)C=C[C@@H]1Oc1ccc(OC)cc1 | i | i | 0 | i | -8.1* | i | i | i | 9 | i
CCCCC(C(=O)O)C(C)CC(=O)Nc1cccc(C(=O)O)c1 (stereo not drawn) | i | i | 2 | i | i | i | i | i | -2 | i
CC(CN(C)C)CN1c2ccccc2CCc2ccccc21 (stereo not drawn) | i | i | 2 | i | i | i | i | i | -7 | -4.9*

Filtered by structure: those above with a Cl atom
SMILES | TRPC6 inh | TRPC4 block | Platelet DG rel | RGS4 inh | RGS4 pot | TRPC6 act | MrgX1 PAM | MrgX1 ag | SKKanGAS inh | MrgX1 antagonist
COc1cccc(OC)c1-c1nn2c(-c3ccccc3Cl)nnc2s1 | i | i | 2 | i | i | i | i | i | 10 | i
O=C1NC(=O)C(c2ccccc2[N+](=O)[O-])=C1Nc1ccc(O)c(Cl)c1 | i | i | -2 | i | i | i | i | i | 0 | i

A different layout for some results above.
| Molecule | TRPC6 inh | TRPC4 block | Platelet DG rel | RGS4 inh | RGS4 pot | TRPC6 act | MrgX1 PAM | MrgX1 ag | SKKanGAS inh | MrgX1 antagonist |
| --- | --- | --- | --- | --- | --- | --- | --- | --- | --- | --- |
| CCOc1cccc(-c2nn3c(-c4ccccn4)nnc3s2)c1 | i | i | 0 | i | i | i | i | i | 2 | i |
| CC(C)c1nc(NCCN2CCOCC2)c(C#N)c2c1COC(C)(C)C2 | i | i | 5 | i | i | i | i | i | -1 | i |

Source: PubChem (several laboratories)
